Screens from PubChem.
hNpr1 antagonist = blocks ANP-stimulated signaling of human Npr1 receptor | actives 1.6% (n = 76,000) | P16066 | Potency, µM (doses to about 46.3 µM), inactives show at the top dose activity change, negative = inhibition, actives largely listed as inhibitors | AID 1347048 | HEK293 hNpr1 GloSensor cGMP, ANP-stimulated luminescence; active = well fitted inhibition curve with a large enough effect; inconclusive = small, poorly fitted or top-dose-only effect; inactive = no such curve, though single readings can be large or run the other way;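 also: nearly all actives have a fitted effect of over 60% in size; nearly all hits also lower the signal before the agonist is added; a reference antagonist and vehicle were the controls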
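Compound pre-incubated 30 min at room temperature on GloSensor-loaded HEK293 cells stably carrying hNpr1 and the pGS-40F cGMP biosensor. Stimulation uses hNppA at 0.1 nM final; luminescence is taken at baseline and 20 min post-agonist.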
* marks the source's active call; other numbers are inactive results. % is scaled to controls: 0 for no effect and ±100 for the full control effect; potency is read from the fitted curve at half-maximal effect. This is a subset (hit frequency here may not be typical).

SMILES	hNpr1 antagonist
COc1ccccc1-c1noc(-c2nnn3c2COC(c2ccc(C)cc2C)C3)n1 (configuration not stated)	-2%
COC1CCC12CCN(C(=O)c1sc(C)nc1C)CC2 (configuration not stated)	-2%
CCCC(=O)NC1CCN(c2ccccc2)C1=O (configuration not stated)	3%
COCCOCc1nc(C2CCCN2C(=O)c2cccs2)no1 (configuration not stated)	-8%
COc1ccc(OC)c(S(=O)(=O)N2CCC([C@H]3[C@@H](OC)C(=O)N3C(C)C)CC2)c1	3%
CCCNC(=O)N(C1CCOCC1)C1CCN(S(=O)(=O)c2ccc(C)cc2C)CC1	2%
CCCN(CC1CCOC1)C(=O)Nc1cc(C)ccc1C (configuration not stated)	-2%
COCCN1C(=O)CC[C@]2(C(=O)NCc3ccc(OC)cc3OC)CCCC[C@@H]12	-16%

Molecules listed so far containing nitrogen in an aromatic ring (three):
SMILES	hNpr1 antagonist
COc1ccccc1-c1noc(-c2nnn3c2COC(c2ccc(C)cc2C)C3)n1 (configuration not stated)	-2%
COC1CCC12CCN(C(=O)c1sc(C)nc1C)CC2 (configuration not stated)	-2%
COCCOCc1nc(C2CCCN2C(=O)c2cccs2)no1 (configuration not stated)	-8%

Quoted from the listing:
`COCCN1C(=O)CC[C@]2(C(=O)NCc3ccc(OC)cc3OC)CCCC[C@@H]12` | hNpr1 antagonist = -16%
`COC1CCC12CCN(C(=O)c1sc(C)nc1C)CC2` (configuration not stated) | hNpr1 antagonist = -2%
`COCCOCc1nc(C2CCCN2C(=O)c2cccs2)no1` (configuration not stated) | hNpr1 antagonist = -8%
`CCCN(CC1CCOC1)C(=O)Nc1cc(C)ccc1C` (configuration not stated) | hNpr1 antagonist = -2%
